RecA splice inh = blocks M. tuberculosis RecA intein splicing. P9WHJ3. cell-free RecA intein splicing, fluorescence. inhibition, %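 (about 9 µM by stock and volumes)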. 290,000 compounds, 0.75% hits. AID 2221; in the data active = inhibition above about 30%;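 note: 0% = vehicle wells and 100% = reference inhibitor control wells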
Target sequence (P9WHJ3 whole entry, looked up, canonical isoform): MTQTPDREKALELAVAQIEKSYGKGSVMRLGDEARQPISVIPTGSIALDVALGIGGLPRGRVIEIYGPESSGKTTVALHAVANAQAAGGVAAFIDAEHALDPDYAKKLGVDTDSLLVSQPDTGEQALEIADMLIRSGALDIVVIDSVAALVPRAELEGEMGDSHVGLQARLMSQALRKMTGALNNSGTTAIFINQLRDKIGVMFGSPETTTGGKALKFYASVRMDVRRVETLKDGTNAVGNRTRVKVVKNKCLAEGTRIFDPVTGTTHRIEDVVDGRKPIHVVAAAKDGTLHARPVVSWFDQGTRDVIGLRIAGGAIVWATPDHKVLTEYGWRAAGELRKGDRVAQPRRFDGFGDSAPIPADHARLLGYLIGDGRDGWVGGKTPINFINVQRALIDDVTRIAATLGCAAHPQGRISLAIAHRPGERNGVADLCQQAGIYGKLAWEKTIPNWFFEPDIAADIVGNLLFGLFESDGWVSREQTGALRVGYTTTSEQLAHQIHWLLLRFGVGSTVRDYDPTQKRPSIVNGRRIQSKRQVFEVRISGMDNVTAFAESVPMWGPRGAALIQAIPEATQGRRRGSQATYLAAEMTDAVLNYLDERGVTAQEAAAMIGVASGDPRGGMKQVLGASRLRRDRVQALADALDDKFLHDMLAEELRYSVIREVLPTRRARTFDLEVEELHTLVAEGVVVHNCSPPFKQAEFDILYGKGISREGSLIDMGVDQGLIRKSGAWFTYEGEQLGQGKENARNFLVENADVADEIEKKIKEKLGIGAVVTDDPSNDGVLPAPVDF
Arbovirus inh = blocks arbovirus infection. arbovirus infection cell-based antiviral screen. inhibition, % at 10 µM. 200,000 compounds, 0.37% hits. AID 1251;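 active = inhibition from about 30%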;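 note: bluetongue infection of BSR cells; cell survival read as ATP light after 72 h; 0% = infected wells without compound and 100% = uninfected wells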
Mtb betalactam = beta-lactam sensitization of Mtb H37Rv. M. tuberculosis H37Rv growth with meropenem, percent inhibition; hits of this screen are not shown here. inhibition, % at 25 µM. 330,000 compounds, 0.27% hits;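 active = about 74% or more and at least 40 points above the plate without the antibiotic, then above 30% in a dose series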;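 note: growth measured after seven days incubation then overnight dye step; 0% = bacteria only wells and 100% = bacteria with antibiotic; twin plates without the antibiotic show which effects depend on it; some results filed as inactive read as strong as hits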
Mtb H37Rv = M. tuberculosis H37Rv growth inhibitors, H37Rv strain (AID 1626); M. tuberculosis H37Rv growth inhibition; higher % means a stronger effect; inhibition, % at 10 µM; hits with a dose series show IC50 in µM; 220,000 compounds, 0.95% hits;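 active = confirmed in a dose series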;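 note: bacteria incubated seven days before Alamar blue readout; 0% = bacteria only wells and 100% = bacteria with antibiotic wells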
YopH inh = blocks Yersinia enterocolitica YopH tyrosine phosphatase | fluorescence Ex485/Em525 | inhibition, %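 (about 10 µM by stock and volumes)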 | 140,000 compounds, 0.16% hits | AID 898;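 active = inhibition of 50% or more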;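 note: controls were vehicle for no effect and minimum signal wells for full effect; inactives centre near -20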
Arbovirus inh repeat = further read-out of Arbovirus inh, marked with its call; inhibition, %; measured here: 10K subset replicate screen; many hits read low in the repeat;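 first of two repeat runs on a subset; 0% = infected and 100% = uninfected wells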
Active calls of the source: *; / = no result given.

SMILES	RecA splice inh	Arbovirus inh	Mtb betalactam	Mtb H37Rv	YopH inh	others
Cc1cc(C)c2oc(C(=O)Nc3ccc(S(=O)(=O)N4CCC(C)CC4)cc3)cc(=O)c2c1	2.8	-4.2	3.2	35.0%	-10.4
O=C(CCNC(=O)Cn1ccc2ccccc2c1=O)NCC1CCCC1c1ccccc1 (stereo not drawn)	-1.6	-9.7	-7.6	-1.3%	/
C(=N\n1cnnc1)/c1ccccc1OCCOc1ccccc1	0.9	-11.6	-14.5	-6.0%	-47.0
COc1cccc(C2/C(=C(\O)c3ccc4c(c3)OCCO4)C(=O)C(=O)N2CCCN2CCOCC2)c1OC (stereo not drawn)	0.0	/	1.5	/	/
CCN(CC)C(=O)C(=O)N/N=C/c1cccs1	3.0	-0.4	-0.6	-2.3%	-31.8
O=C(NCC1CCCO1)NC1CCCCC1 (stereo not drawn)	-0.7	9.1	-17.1	-8.0%	-6.1
CCOC(=O)c1cnc2ccc(C(=O)OC)cc2c1Nc1ccc2c(c1)OCCO2	0.6	2.4	4.3	11.3%	-31.2
Cc1ccnc(NS(=O)(=O)c2ccc(NC(=O)c3ccc(S(=O)(=O)N4CCCC4)cc3)cc2)n1	-2.8	0.5	1.6	-0.4%	/
COc1ccc(CCn2nnnc2C(c2ccc(C)cc2)N2CCN(C)CC2)cc1OC (stereo not drawn)	1.0	11.5	-15.4	1.5%	-44.5
Cc1ccc(C(=O)NC(=S)Nc2ccc(-c3cc4ccccc4oc3=O)cc2)c(C)c1	0.2	-1.4	-6.2	6.4%	-14.7
CC(C)n1nnnc1SCC(=O)NNC(=O)C1CCCCC1	/	1.9	-5.9	-9.5%	-36.8
COc1ccc(-n2c(Cn3c(=O)sc4ccccc43)nnc2SCC(N)=O)cc1	1.0	5.5	-0.6	-6.7%	-43.8	Arbovirus inh repeat=0.5
CCCCNC(=O)C1CC(=O)N(CCc2ccc(C)cc2)C1 (stereo not drawn)	3.1	/	2.6	/	/
CCCCCCNC(=O)c1cccc(-c2ccc(C)c3ccccc23)n1	2.6	-19.0	4.6	4.7%	-5.3
COc1cc(CNC2CCCCCC2)cc(OC)c1	-1.6	8.6	-0.2	9.9%	-26.7
CC(Oc1ccc(F)cc1)C(=O)/C=C\N(C)C (stereo not drawn)	0.2	14.7	3.1	-2.1%	-1.9
O=C(COC(=O)c1cccc(N2C(=O)C3CC=CCC3C2=O)c1)c1ccccc1 (stereo not drawn)	-0.9	/	0.8	/	/
COC(=O)[C@@]12CCCCN1[C@H](c1ccc(-c3ccc(C(C)=O)cc3)cc1)[C@@H]1C(=O)N(C)C(=O)[C@@H]12	-2.4	/	36.3	/	/
COc1ccc(CNc2nnnn2C)cc1	10.3	/	6.2	/	/
COc1ccc(OC)c(Nc2cc3ccccc3c(=O)[nH]2)c1	82.9*	/	0.8	-3.2%	/
COc1ccc(N2CCN(CCNC(=O)Nc3ccc([N+](=O)[O-])cc3OC)CC2)cc1	1.9	/	3.0	/	/
Cc1c(C#N)c(N)nc2c3c(sc12)NC(=O)CC3c1ccc(Cl)cc1 (stereo not drawn)	-0.2	-23.7	1.9	3.7%	-15.5
O=C(Nc1ccc(Br)cc1)c1nn(C23CC4CC(CC(C4)C2)C3)cc1Br	2.1	11.4	-10.8	0.3%	-29.7
CC(C)=CC(=O)NCc1c(Cl)cccc1-n1cccc1	0.4	0.7	-3.4	0.5%	-43.6
COc1ccc2cc3c(N)nn(C(=O)C4CCC(C(C)(C)C)CC4)c3nc2c1 (stereo not drawn)	-5.2	-33.2	5.6	16.4%	-24.6

6 entries from above, ordered by number of heavy atoms, descending.
SMILES	RecA splice inh	Arbovirus inh	Mtb betalactam	Mtb H37Rv	YopH inh	others
Cc1ccnc(NS(=O)(=O)c2ccc(NC(=O)c3ccc(S(=O)(=O)N4CCCC4)cc3)cc2)n1	-2.8	0.5	1.6	-0.4%	/
COc1ccc(N2CCN(CCNC(=O)Nc3ccc([N+](=O)[O-])cc3OC)CC2)cc1	1.9	/	3.0	/	/
O=C(Nc1ccc(Br)cc1)c1nn(C23CC4CC(CC(C4)C2)C3)cc1Br	2.1	11.4	-10.8	0.3%	-29.7
COc1ccc(OC)c(Nc2cc3ccccc3c(=O)[nH]2)c1	82.9*	/	0.8	-3.2%	/
CCN(CC)C(=O)C(=O)N/N=C/c1cccs1	3.0	-0.4	-0.6	-2.3%	-31.8
COc1ccc(CNc2nnnn2C)cc1	10.3	/	6.2	/	/

Additional compounds.
SMILES	RecA splice inh	Arbovirus inh	Mtb betalactam	Mtb H37Rv	YopH inh	others
CC(C)(C)N(NC(=O)c1ccccc1)C(=O)c1ccc(C(=O)N(NC(=O)c2ccccc2)C(C)(C)C)cc1	-1.2	-2.8	1.0	0.0%	-10.6
COc1ccccc1CN1CC(C(=O)NCCSc2nnnn2C)CCC1=O (stereo not drawn)	-0.8	/	2.7	/	/
O=S(=O)(Nc1ccc(-c2nc3cccnc3s2)cc1)c1ccccc1F	-11.3	/	-8.9	-3.2%	/
CC1CCN(CCCOc2ccc(OCc3ccccc3)cc2)CC1	4.1	-8.0	0.4	6.2%	-30.5
Cc1ccc(C(=O)N2CCc3ccccc32)o1	-1.9	-6.0	-1.9	5.7%	-23.5
CCCCC1=CC2=C(c3ccco3)C(=O)C(C)(OC(=O)c3ccc(OC)cc3)C(=O)C2=CN1CCOC (stereo not drawn)	-2.0	/	9.8	-7.7%	/
COc1ccc(-c2cc(C(F)(F)F)nc(-n3cc(Br)cn3)n2)cc1	1.0	-1.8	-2.8	-1.7%	5.1
CCN1CCN(c2c(C(=O)c3ccc(OC)cc3)cnc3ccccc23)CC1	-0.3	2.5	-1.1	-4.1%	/
Cc1ccc(C(=O)CCC(=O)CCC(=O)O)cc1	0.0	/	-8.1	0.4%	-30.9
Cc1ccc(Nc2c([N+](=O)[O-])c(=O)oc3ccccc23)cc1	0.8	-15.9	10.0	0.8%	/
O=C(CN(C(=O)CNC(=O)c1cccs1)c1ccc2c(c1)OCCO2)NC1CCCC1	-5.4	1.4	-0.8	-4.4%	-15.4
OC(c1ccccc1)c1cccnc1 (stereo not drawn)	-2.8	3.0	9.4	10.8%	-19.1
CC1Cc2cc(/C(O)=C3/C(=O)C(=O)N(Cc4cccnc4)C3c3cccc(O)c3)ccc2O1 (stereo not drawn)	1.6	/	-2.8	/	/
CS(=O)(=O)Nc1ccccc1Oc1ccccc1	-0.6	2.2	-3.5	5.8%	-21.3	Arbovirus inh repeat=-0.1
CCOc1cc(C2C3=C(CCCC3=O)N(C)C3=C2C(=O)CCC3)cc(Cl)c1O	-10.3	2.3	-7.2	2.2%	-9.9	Arbovirus inh repeat=-1.3
O=C(NCCC1=CCCCC1)C(=O)NCC1OCCCN1S(=O)(=O)c1ccccc1 (stereo not drawn)	0.5	8.0	-5.2	0.0%	-25.2
Cc1c(C(=O)Nc2ccc(-n3cnnn3)cc2)oc2ccccc12	/	0.4	-0.9	4.2%	-31.9
CC(C)NC(=O)c1cc2c(s1)CCCC2	1.7	9.3	-8.6	-4.5%	-54.0
S=c1[nH]ncn1/N=C/c1cccc(Oc2ccccc2)c1	9.5	-3.4	-15.1	10.8%	-24.8
COc1ccc(-c2[nH]nc3oc(=O)c(CCO)c(C)c23)cc1	2.3	-7.2	-4.6	-0.9%	/
COc1cccc(CNC(=O)Cn2c(=O)c3cccn3c3ccccc32)c1	-1.9	/	6.7	/	/
CCCCN1C(=O)NC(=O)C2(Cc3c(nc4ccccn4c3=O)N3CCc4ccccc4C32)C1=O (stereo not drawn)	8.0	7.8	11.1	1.4%	-41.8
Cc1ccc(C(=O)NNC(=S)Nc2cccc(Cl)c2Cl)cc1[N+](=O)[O-]	6.4	5.1	-3.1	1.2%	-15.2
Cc1cc(C)c2c(c1)C1(OCCO1)C(=O)N2	0.9	/	3.0	/	/
Cn1nc(C(=O)NCCOc2ccccc2)c2ccccc2c1=O	-0.2	-1.4	-1.1	1.7%	/
(further entries)
SMILES	RecA splice inh	Arbovirus inh	Mtb betalactam	Mtb H37Rv	YopH inh	others
Cc1ccc2nc(N(CCCN(C)C)C(=O)COc3ccc(Cl)cc3)sc2c1	7.6	-0.1	6.5	2.5%	/
COc1ccc(NC(=O)C2=C(C)NC(=S)NC2c2ccc(O)c(OC)c2)cc1 (stereo not drawn)	0.5	10.4	-8.7	-5.6%	/
CNC(=O)c1ccccc1NC(=O)c1c(O)c2c([nH]c1=O)CCCC2	/	5.2	-7.7	2.2%	5.0	Arbovirus inh repeat=4.6
Cc1nc2c([N+](=O)[O-])c(C)c(C)cc2[nH]1	-1.7	2.2	-4.8	0.6%	/
CCN(Cc1ccncc1)C(=O)c1cccs1	7.0	4.3	-5.4	6.7%	-46.3
O=c1oc2c(CN3CCCCC3)c(O)ccc2c2c1CCCC2	-45.5	-0.4	3.8	-1.4%	-23.6
C/C(Cl)=C\Cn1c(N2CCCC2)nc2c1c(=O)[nH]c(=O)n2C	0.6	6.7	-4.2	-1.4%	-4.0
CCOc1ccccc1-n1c(SCC(N)=O)nnc1-c1ccco1	-0.3	3.8	-3.3	0.7%	-40.2
CCOc1ccc(C(=O)Cc2cc(OC)c(OC)cc2[N+](=O)[O-])cc1	-0.1	-5.8	0.5	-2.3%	-13.0
Cc1c(OC(C)C(=O)NCCCN2CCOCC2)ccc2c3c(c(=O)oc12)CCCC3 (stereo not drawn)	-6.4	/	3.1	/	/
CC1CC(C)CN(C(=O)CCNC(=O)Cn2cnc3ccccc3c2=O)C1 (stereo not drawn)	-3.9	/	0.1	/	/
CCCCNS(=O)(=O)c1ccc2nc(-c3cccnc3)cc(C(=O)NC(C)CC)c2c1 (stereo not drawn)	1.2	-4.3	0.4	/	-8.9
COc1ccc(NC(=O)COC(=O)[C@@H](NC(=O)c2c(F)cccc2F)C(C)C)cc1	1.0	-1.2	-6.1	1.7%	/
O=C(Cc1ccc(Br)cc1)N(Cc1ccccc1)c1ccccn1	5.7	-11.7	-1.6	6.8%	/
Cc1ccc(NC(=O)c2ccc(C)cc2)cc1	-2.9	/	0.1	/	/
Cc1cc(Sc2nc(NC(C)(C)C)nc(N3CCOCC3)n2)nc(Cl)n1	-2.4	3.5	4.2	4.1%	-22.1
NS(=O)(=O)c1ccc(Nc2nc(-c3ccccc3)cs2)cc1	0.8	6.1	65.8	7.6%	-11.3
COc1ccccc1CCc1nnc(CCC(=O)NC(C)Cc2cccnc2)o1 (stereo not drawn)	0.2	1.0	4.3	4.5%	/
Cc1ccc(CCNC(=O)CS(=O)Cc2nc(-c3ccccc3Cl)oc2C)cc1 (stereo not drawn)	2.0	/	-2.2	/	/
O=C(CSc1nc(C2CCCCC2)n(-c2ccccc2)n1)NCCN1C(=O)CSC1=O	1.2	3.1	-9.9	10.4%	-26.7
O=C(CCc1ccccc1)NN1C(=O)C2C3C=CC(O3)C2C1=O (stereo not drawn)	0.5	8.0	19.3	7.9%	/
CCOC(=O)C1CCCN(c2ncnc3c2cnn3-c2cccc(C)c2)C1 (stereo not drawn)	8.6	3.2	/	-2.8%	0.4
CC(C)(C)C(=O)CN1C(=O)NC2(CCOc3ccccc32)C1=O (stereo not drawn)	1.1	/	-5.6	/	/
CCOc1ccc(/C=N/OCC(=O)NCc2cccs2)cc1	-0.3	-3.8	-4.5	0.9%	-23.8
COc1cccc(C(=O)NNC(=O)/C=C/c2ccccc2)c1	0.5	/	1.0	/	/
Next part.
SMILES	RecA splice inh	Arbovirus inh	Mtb betalactam	Mtb H37Rv	YopH inh	others
CC(C)CNC(=S)NC(=O)c1ccc(Cl)cc1Cl	2.7	7.2	8.0	4.9%	-16.3
O=C(O)c1oc2ccccc2c1CN1CCN(c2ccccc2)CC1	-0.8	4.6	-8.8	-8.3%	-40.2
O=C(Cc1ccccc1)NC(=S)Nc1ccc2oc(-c3ccccc3F)nc2c1	1.9	-6.9	39.7	19.4%	-16.5
CCCCCOC(=O)Nc1nnc(CCCCC)s1	-1.0	-3.3	99.4	6.6%	-6.1
Cc1[nH]c(=O)[nH]c(=O)c1CSCC(=O)OCC(=O)Nc1ccccn1	-0.6	/	0.2	-12.6%	/
O=C(C1CC(=O)N(c2ccccc2)C1)N1CCC(c2nc3ccccc3[nH]2)CC1 (stereo not drawn)	0.7	/	0.7	/	/
CCCOP(=O)(c1ccc(N(C)C)cc1)C(O)c1ccc(N(C)C)cc1 (stereo not drawn)	-2.2	/	3.8	/	/
Cc1ccc(S(=O)(=O)Cn2nnnc2C(C)N2CCN(C(=O)c3ccco3)CC2)cc1 (stereo not drawn)	-1.1	-5.8	-6.2	-4.7%	-46.3
COc1ccc2[nH]c(C(=O)N3CCN(Cc4ccccc4)CC3)cc2c1OC	0.9	/	4.1	/	/
COCc1nnc(NC(=O)CC(C)C)s1	/	11.6	-2.8	-8.7%	-17.2

Source: PubChem BioAssay

Only part of the results is shown. The share of hits here may be higher or lower than overall.
